Screens deposited in PubChem by several laboratories.
CSC inhib: blocks cancer stem cells | cancer stem cell-like cells viability, luminescence | inhibition, % at 7.5 µM | 300,000 compounds, 1.1% hits | AID 2717;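 active = mean at 75% or more and at least half the replicates too; inconclusive = mean and replicates disagree; tested in HMLE shEcad cells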;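 note: 0% = median of negative and 100% = median of positive control wells; the first replicate is given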
Yeast UUG start: modulators of start codon recognition fidelity in yeast; activity score, % at 18.7 µM; AID 602363; S. cerevisiae UUG-firefly luciferase reporter, luminescence/redox ratio; 350,000 compounds, 0.13% hits;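 active = replicate mean at a twofold rise or more, about +100% in these data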;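 note: firefly luciferase made from a UUG start codon reports start codon fidelity; reporter light over untreated wells divided by growth signal over untreated wells; some hits fall short of that in this replicate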
eIF4H FP inh: inhibitors of RNA binding by human eIF4H. eIF4H fluorescence polarization binding assay. inhibition, % at 35 µM. 290,000 compounds, 0.94% hits. AID 2012;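 active = 50% or more with normal probe brightness, or confirmed in later tests; inconclusive = above 50% with abnormal brightness, or retests that disagree; inactive = below 50% or failed in later tests; about a fifth of its hits are not listed in these tables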;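 note: calls also rest on retests at 20 µM and on dose response follow-up; 0% = protein and probe with vehicle and 100% = probe without protein; strong numbers were not always called active; many hits fall short of the cut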
PABP polyA inh: blocks human PABP binding to poly(A) RNA; P11940; fluorescence polarization; inhibition, % at 35 µM; 290,000 compounds, 1% hits; AID 2014;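 active = 50% or more with normal probe brightness, or confirmed in later tests; inconclusive = above 50% with abnormal brightness, or retests that disagree; inactive = below 50% or failed in later tests; about a fifth of its hits are not listed in these tables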;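 note: calls also rest on retests at 20 µM and on dose response follow-up; controls were probe without protein and protein plus probe with vehicle; some compounds called inactive have numbers as strong as hits; many hits fall short of the cut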
MT1-MMP act inh: inhibitors of human MT1-MMP activation | P50281 | HT1080 RFP-PRO-GFP cells, GFP/RFP ratio fluorescence, overnight; percent of plate control window, DMSO zero | GFP/RFP ratio change, % at 20 µM | 360,000 compounds, 0.061% hits | AID 651647;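 active = GFP/RFP ratio change of at least 30% with cell ATP level not reduced by more than half and red fluorescence within 50% of control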; note: strong numbers were not always called active
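Assay system: HT1080 RFP-PRO-GFP cells | Dosing: 20 µM single dose, 1% DMSO | Incubation: Cells overnight before dosing, compound overnight, 37 °C, 5% CO2 | Evaluation: GFP/RFP fluorescence ratio | Control set: DMSO-only wells and HT1080 RFP-L50D-GFP cell wells as references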
HIV Env fusion: inhibitors of HIV Env-mediated cell fusion. 360,000 compounds, 1.1% hits. inhibition, % at 12.3 µM. HeLa-JRFL Env/CEM21 cell fusion, luciferase;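 active = mean replicate inhibition score of at least 50 and every replicate individually at or above 50; inconclusive = only one of the two criteria met; inactive = mean below 50 and not all replicates reaching 50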;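 note: 0% = plate neutral controls and 100% = maraviroc near 300 nM; one replicate is shown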
Rce1 inh: blocks yeast Ras-converting enzyme. Q03530. 290,000 compounds, 0.27% hits. calls only. yeast membranes, quenched prenylated peptide cleavage fluorescence;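 active = fall in fluorescence gain of 50% or more versus controls, with final raw signal at or below 3038400; inconclusive = same 50% fall but final raw signal above 3038400; inactive = fall in fluorescence gain under 50%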;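 note: plate controls were neutral control wells for no effect and wells lacking membranes for full effect; tested at 10 µM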
Target sequence (Q03530 whole entry, looked up): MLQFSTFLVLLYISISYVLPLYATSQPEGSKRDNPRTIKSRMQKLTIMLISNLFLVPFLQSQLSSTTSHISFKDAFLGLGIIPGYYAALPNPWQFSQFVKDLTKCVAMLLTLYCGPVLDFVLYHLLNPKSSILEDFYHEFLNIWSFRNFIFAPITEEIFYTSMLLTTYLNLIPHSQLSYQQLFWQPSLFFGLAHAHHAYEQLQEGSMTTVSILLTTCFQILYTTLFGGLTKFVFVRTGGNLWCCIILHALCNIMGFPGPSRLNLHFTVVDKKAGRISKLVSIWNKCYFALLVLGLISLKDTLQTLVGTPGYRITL
MT1-MMP act inh RFP: further read-out of MT1-MMP act inh, marked with its call; RFP signal change, %; measured here: RFP expression control read;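 0 = vehicle wells; hits needed this value within 50% of zero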
* = called active by the depositor; i = inactive; ? = inconclusive; / = not tested or not shown. No enrichment for hits; about 2.9% have a hit in one of these screens.

SMILES | CSC inhib | Yeast UUG start | eIF4H FP inh | PABP polyA inh | MT1-MMP act inh | MT1-MMP act inh RFP | HIV Env fusion | Rce1 inh
Nn1c(SCC(=O)Nc2ccc3c(c2)OCCO3)nnc1-c1ccncc1 | -18 | -21 | 2 | 2 | 2 | 8 | 17 | i
Cc1c(NC(=O)CN2CCN(C(c3ccccc3)c3ccccc3)CC2)c(=O)n(-c2ccccc2)n1C | 1 | -2 | -4 | -10 | 0 | 4 | / | i
O=C(Cn1c(NCCCCl)nc2ccccc21)c1ccccc1 | -7 | -3 | / | / | 0 | 1 | 6 | /
CCc1ccccc1NC(=O)CCN1C(=O)C2C3CCC(C3)C2C1=O (stereo unspecified) | -2 | / | 9 | -10 | 2 | 5 | 8 | i
CCOc1ccc(N(C)S(=O)(=O)c2ccc3[nH]cc(C(=O)NCC4CCCO4)c(=O)c3c2)cc1 (stereo unspecified) | 0 | 5 | 5 | 0 | 2 | -5 | / | i
CCC(C(=O)OCC(=O)N1C(C)CCCC1C)c1ccccc1 (stereo unspecified) | -2 | -10 | -2 | 5 | -3 | 3 | -1 | i
CCOC(=O)CSc1c(-c2cccs2)[nH]c2ccccc12 | 11 | 2 | 5 | 2 | 1 | -4 | 5 | i
CCCCc1ccc(NC(=O)CC(C)C)cc1 | 1 | / | -2 | 6 | -2 | 1 | 11 | i
O=C(Cn1cc2c(n1)CCCC2)NC1CCCCCC1 | -7 | -8 | -1 | -12 | 2 | 2 | 8 | i
Cc1ccccc1NC(=O)C(C)n1c2ccccc2c2nc(=O)cc(C)n21 (stereo unspecified) | 1 | / | 0 | 9 | 7 | 6 | -26 | i
CC12CCC(C(=O)Nc3ccccc3Cl)(C(Br)C1=O)C2(C)C (stereo unspecified) | -10 | -20 | -2 | -9 | 2 | 2 | 22 | i
CN(CC(=O)N1CCCCC1)S(=O)(=O)c1cccc2nsnc12 | 10 | -19 | 15 | 5 | 2 | 5 | 1 | i
O=C1Nc2ccccc2N(O)N1c1ccc(Cl)c(Cl)c1 | -7 | / | -12 | 44 | 7 | 5 | 19 | i
O=C(O)COCC(=O)NCc1csc2ccc(Cl)cc12 | -6 | / | 0 | -3 | 1 | 1 | -6 | i
COc1ccc(NC(=O)c2cc(S(=O)(=O)N(C)C)ccc2N2CCCC2)cc1Cl | 4 | / | -9 | -24 | -1 | 0 | 21 | i
Cc1noc(C)c1S(=O)(=O)N1CCCC1C(=O)NC(C)(C)C (stereo unspecified) | -11 | 2 | -12 | -10 | -4 | -1 | 23 | i
Cc1cc(C(=O)Nn2c(C3CCCCC3)nc3ccccc3c2=O)ccc1[N+](=O)[O-] | 10 | / | 9 | -7 | -1 | -6 | -17 | i
CCOc1ncccc1C(=O)Nc1ccc2c(C)cc(=O)oc2c1 | -16 | -16 | 3 | 0 | 0 | -4 | -21 | i
COc1ccc(C(CNC(=O)c2ccc(C)c(S(=O)(=O)N3CCCCC3)c2)N2CCCC2)cc1 (stereo unspecified) | / | -13 | / | / | -2 | 1 | 1 | /
Cc1ccc(Cn2ccc(NC(=O)c3nc4ncccn4n3)n2)cc1 | 1 | -16 | -2 | -9 | 0 | 4 | / | i
O=C(N/N=C/c1c(O)ccc2ccccc12)Nc1ccccc1 | 15 | / | / | / | / | / | -3 | i
O=C1Cc2ccccc2C(=O)N1c1cccc(Cl)c1 | 6 | -17 | -10 | 12 | 1 | 6 | 10 | i
CCOC(=O)N1CCN(S(=O)(=O)N2CCCC(C(=O)NCc3cc(OC)ccc3OC)C2)CC1 (stereo unspecified) | / | 0 | / | / | 2 | 1 | 3 | /
O=C(COc1ccccc1[N+](=O)[O-])Nc1ccc(NC(=O)c2cc3ccccc3o2)cc1 | -2 | -16 | 21 | -7 | -3 | -6 | -83 | i
O=C(O)COc1cccc2ccccc12 | -10 | -5 | 2 | 12 | 2 | 5 | -4 | i
Cc1cc(C(=O)COC(=O)c2ccc(O)cc2)c(C)n1CC1CCCO1 (stereo unspecified) | -8 | / | 1 | -2 | 0 | 3 | -3 | i
COc1cc(C(=O)Nc2cccc(S(=O)(=O)NCc3ccco3)c2)cc(OC)c1OC | / | -11 | / | / | 14 | -3 | -4 | /
Cn1c(=O)c(=O)n(C)c2cc(S(=O)(=O)CCC(=O)Nc3ccc(F)cc3)ccc21 | -8 | -9 | -4 | -2 | -1 | 5 | / | i
CN(CC(=O)Nc1ccccc1Cl)C(=O)C1CCN(S(=O)(=O)c2ccc3c(c2)OCCO3)CC1 | -10 | / | / | / | 5 | -3 | -2 | i
Cc1ccc(/C=N/NC(=O)CN2C(=O)CSc3ccccc32)o1 | -19 | / | -8 | -17 | 1 | -3 | 1 | i
COc1cc(CNc2ccc3[nH]c(=O)[nH]c3c2)ccc1OCc1c(F)cccc1Cl | -2 | -16 | -4 | 7 | 3 | -7 | -25 | i
O=S(=O)(NCCN1CCN(S(=O)(=O)c2ccccc2F)CC1)c1ccccc1F | -5 | -12 | / | / | 1 | -1 | 3 | /
Cc1ccc(C(=O)N/C(=C\c2cn(C)c3ccccc23)C(=O)NCCCn2ccnc2)cc1 | -19 | / | 0 | 8 | 0 | 0 | -1 | i
Cc1cccnc1NC(=O)COc1ccc2oc3c(c2c1)CCCC3 | -2 | 4 | -1 | -5 | 5 | -4 | ? | i
O=C(NC1CCS(=O)(=O)C1)Oc1ccc(Cl)cc1 (stereo unspecified) | -2 | -10 | -7 | 4 | -1 | 0 | -75 | i
CCC(=O)N1CCCc2ccccc21 | 0 | / | 100* | 59* | 4 | 4 | -11 | i
CSc1ccc(S(=O)(=O)Nc2ccc(N3CCOCC3)c(Cl)c2)cc1 | 3 | -6 | -4 | 0 | 3 | -6 | / | i
O=C(NCc1cccnc1)c1ccc(CS(=O)(=O)Cc2ccc(Cl)cc2)o1 | 3 | 9 | 6 | 3 | -2 | -5 | / | i
CCC(CO)NC1=C([N+](=O)[O-])C(=O)CC(C)(C)C1 (stereo unspecified) | 3 | -18 | -8 | -9 | 2 | 4 | -15 | i
O=C(c1ccc2ccccc2c1)N1CCCCC1 | -7 | 6 | 6 | 17 | 2 | 8 | -4 | i

4 entries from above, ordered by the value under MT1-MMP act inh RFP, rising:
SMILES	Yeast UUG start	MT1-MMP act inh	MT1-MMP act inh RFP	HIV Env fusion	Rce1 inh
CCOc1ccc(N(C)S(=O)(=O)c2ccc3[nH]cc(C(=O)NCC4CCCO4)c(=O)c3c2)cc1 (stereo unspecified)	5	2	-5	/	i
Cc1cccnc1NC(=O)COc1ccc2oc3c(c2c1)CCCC3	4	5	-4	?	i
O=S(=O)(NCCN1CCN(S(=O)(=O)c2ccccc2F)CC1)c1ccccc1F	-12	1	-1	3	/
CCC(C(=O)OCC(=O)N1C(C)CCCC1C)c1ccccc1 (stereo unspecified)	-10	-3	3	-1	i

Later entries
SMILES | CSC inhib | Yeast UUG start | eIF4H FP inh | PABP polyA inh | MT1-MMP act inh | MT1-MMP act inh RFP | HIV Env fusion | Rce1 inh
COc1ccc(C(=O)OC(C)C(=O)NC(C)CCc2ccccc2)c(OC)c1 (stereo unspecified) | 9 | -2 | 6 | 12 | -4 | -6 | 24 | i
c1ccc(-c2nnc(CSc3nnc(-c4cccs4)o3)o2)cc1 | -7 | -12 | / | / | -1 | 3 | -221 | i
O=C(NCc1ccc(Cl)cc1)C1CCC(=O)N(C2CC2)C1 (stereo unspecified) | -2 | -14 | -9 | 11 | 1 | 0 | -3 | i
[O-][N+]1=c2ccc(Nc3ccccc3)cc2=NC12CCCCC2 | 80* | -15 | 12 | 10 | -13 | -6 | 21 | i
Cc1cc(/C=N/n2cnnc2)c(C)n1-c1ccc(OCc2ccc(Cl)cc2)cc1 | 46 | / | -1 | -9 | 1 | -29 | / | i
CCOC(=O)C1=CNS(=O)(=O)NC1c1ccc(C#N)cc1 (stereo unspecified) | / | -2 | / | / | 1 | 4 | -33 | /
CCOC(=O)N1CCN(C(=O)C(C)N(c2ccc(Oc3ccccc3)cc2)S(C)(=O)=O)CC1 (stereo unspecified) | 15 | -22 | 14 | 6 | -5 | -20 | / | i
CCc1cc2c(=O)[nH]c(Cc3ccccc3)nc2s1 | 19 | -7 | -8 | -2 | -2 | 1 | / | i
O=C(COC(=O)c1cnccn1)Nc1cccc(F)c1 | -1 | -9 | / | / | 1 | -1 | -19 | /
COc1nc(OC)nc(N2CCC(NC(=O)C(Cc3ccc(C(C)C)cc3)NC(C)=O)CC2)n1 (stereo unspecified) | 15 | -9 | -2 | 0 | -10 | -7 | -18 | i

Copied from above for reference:
SMILES | CSC inhib | Yeast UUG start | eIF4H FP inh | PABP polyA inh | MT1-MMP act inh | MT1-MMP act inh RFP | HIV Env fusion | Rce1 inh
c1ccc(-c2nnc(CSc3nnc(-c4cccs4)o3)o2)cc1 | -7 | -12 | / | / | -1 | 3 | -221 | i
O=C(NCc1ccc(Cl)cc1)C1CCC(=O)N(C2CC2)C1 (stereo unspecified) | -2 | -14 | -9 | 11 | 1 | 0 | -3 | i
[O-][N+]1=c2ccc(Nc3ccccc3)cc2=NC12CCCCC2 | 80* | -15 | 12 | 10 | -13 | -6 | 21 | i
Cc1cc(/C=N/n2cnnc2)c(C)n1-c1ccc(OCc2ccc(Cl)cc2)cc1 | 46 | / | -1 | -9 | 1 | -29 | / | i
CCOC(=O)C1=CNS(=O)(=O)NC1c1ccc(C#N)cc1 (stereo unspecified) | / | -2 | / | / | 1 | 4 | -33 | /
CCOC(=O)N1CCN(C(=O)C(C)N(c2ccc(Oc3ccccc3)cc2)S(C)(=O)=O)CC1 (stereo unspecified) | 15 | -22 | 14 | 6 | -5 | -20 | / | i
CCc1cc2c(=O)[nH]c(Cc3ccccc3)nc2s1 | 19 | -7 | -8 | -2 | -2 | 1 | / | i

Going on with the list.
SMILES | CSC inhib | Yeast UUG start | eIF4H FP inh | PABP polyA inh | MT1-MMP act inh | MT1-MMP act inh RFP | HIV Env fusion | Rce1 inh
O=C(NCc1ccco1)c1nn2c(C(F)(F)F)cc(-c3cccs3)nc2c1Br | 29 | 5 | -2 | 30 | -1 | -4 | / | i
COc1cccc(N2C(=O)c3cccnc3C2O)c1 (stereo unspecified) | 0 | -15 | -6 | -17 | -2 | -1 | 1 | i
CSCCC(NC(=O)c1ccccc1Cl)C(=O)NCC(c1cccs1)N(C)C (stereo unspecified) | / | 0 | / | / | 2 | 6 | 0 | /
CCOc1ncccc1C(=O)OCC(=O)c1cc(OC)c(OC)c(OC)c1 | -7 | 3 | 0 | 12 | -3 | -3 | 4 | i
CCC(=O)OCCCCCCOc1ccc(C(=O)O)cc1 | -4 | -6 | -16 | -8 | -2 | 2 | -44 | i
COc1ccc(NC2=CC(=O)CC(c3ccccc3)C2)cc1 (stereo unspecified) | -6 | / | -8 | -8 | 0 | 2 | 2 | i
COc1ccc(-c2cc(C(F)(F)F)n3nc(C(=O)N4CCCCC4)cc3n2)cc1 | 1 | -20 | -10 | -7 | 3 | -6 | 37 | i
CCOC(=O)N1CCN(C(=O)/C(=C/c2ccc(N(C)C)cc2)NC(=O)c2ccccc2)CC1 | / | -10 | / | / | -1 | -1 | -2 | /
Cc1cc(C(C)(C)C)cc(CN2CCN(S(=O)(=O)c3cccs3)CC2)c1O | / | -11 | / | / | -7 | -9 | 36 | /
O=C(N/N=C\c1ccccc1)c1cccc(C(=O)N/N=C\c2ccccc2)n1 | -4 | -7 | / | / | 3 | 1 | -5 | i
O=C(CN1C(=O)c2cccc3cccc(c23)C1=O)N1CCCCCC1 | -13 | -12 | -1 | -12 | 10 | 5 | / | i
Oc1ccc(-c2ccccc2)cc1CN1CCCCCC1 | -9 | -7 | -10 | -1 | -4 | -6 | 9 | i
